Assay outcomes: PubChem BioAssay, several laboratories
Env fusion inh = inhibitors of HIV Env-mediated cell fusion | HeLa-JRFL Env/CEM21 cell fusion, luciferase | inhibition, % at 12.3 µM | 1.1% of 360,000 active | AID 651610;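 active = mean replicate inhibition score of at least 50 and every replicate individually at or above 50; inconclusive = only one of the two criteria met; inactive = mean below 50 and not all replicates reaching 50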;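 note: 0% = plate neutral controls and 100% = maraviroc near 300 nM; one replicate is shown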
MT1-MMP act inh = blocks activation of human MT1-MMP; P50281; HT1080 RFP-PRO-GFP cells, GFP/RFP ratio fluorescence, overnight; percent of plate control window, DMSO zero; GFP/RFP ratio change, % at 20 µM; 0.061% of 360,000 active; AID 651647;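 active = GFP/RFP ratio change of at least 30% with cell ATP level not reduced by more than half and red fluorescence within 50% of control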; note: strong numbers were not always called active
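Test system: HT1080 RFP-PRO-GFP cells; Benchmarks: DMSO and RFP-L50D-GFP cell wells; Timing: cells overnight before dosing, compound overnight, 37 °C, 5% CO2; Compound: one 20 µM compound dose with 1% DMSO; Read-out: GFP/RFP fluorescence ratio.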
eIF4H FP inh = inhibitors of RNA binding by human eIF4H. Q15056. eIF4H fluorescence polarization binding assay. inhibition, % at 35 µM. 0.94% of 290,000 active. AID 2012;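 active = 50% or more with normal probe brightness, or confirmed in later tests; inconclusive = above 50% with abnormal brightness, or retests that disagree; inactive = below 50% or failed in later tests; about a fifth of its hits are not listed in these tables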;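 note: calls also rest on retests at 20 µM and on dose response follow-up; 0% = protein and probe with vehicle and 100% = probe without protein; strong numbers were not always called active; many hits fall short of the cut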
Rce1 inhib = yeast Ras-converting enzyme inhibition; Q03530; yeast membranes, quenched prenylated peptide cleavage fluorescence; calls only; 0.27% of 290,000 active; AID 2563;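 active = fall in fluorescence gain of 50% or more versus controls, with final raw signal at or below 3038400; inconclusive = same 50% fall but final raw signal above 3038400; inactive = fall in fluorescence gain under 50%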;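 note: plate controls were neutral control wells for no effect and wells lacking membranes for full effect; tested at 10 µM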
UUG fidelity = yeast start codon fidelity modulation | 0.13% of 350,000 active | AID 602363 | activity score, % at 18.7 µM | S. cerevisiae UUG-firefly luciferase reporter, luminescence/redox ratio;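 active = replicate mean at a twofold rise or more, about +100% in these data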;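 note: firefly luciferase made from a UUG start codon reports start codon fidelity; reporter light over untreated wells divided by growth signal over untreated wells; some hits fall short of that in this replicate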
CSC inhib = blocks cancer stem cells | cancer stem cell-like cells viability, luminescence | inhibition, % at 7.5 µM | 1.1% of 300,000 active;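 active = mean at 75% or more and at least half the replicates too; inconclusive = mean and replicates disagree; tested in HMLE shEcad cells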;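 note: 0% = median of negative and 100% = median of positive control wells; the first replicate is given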
PABP FP inh = PABP-poly(A) binding inhibition; 1% of 290,000 active; AID 2014; inhibition, % at 35 µM; PABP-poly(A) RNA binding, fluorescence polarization; P11940;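 active = 50% or more with normal probe brightness, or confirmed in later tests; inconclusive = above 50% with abnormal brightness, or retests that disagree; inactive = below 50% or failed in later tests; about a fifth of its hits are not listed in these tables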;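 note: calls also rest on retests at 20 µM and on dose response follow-up; controls were probe without protein and protein plus probe with vehicle; some compounds called inactive have numbers as strong as hits; many hits fall short of the cut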
Target sequence (P11940 whole entry, looked up): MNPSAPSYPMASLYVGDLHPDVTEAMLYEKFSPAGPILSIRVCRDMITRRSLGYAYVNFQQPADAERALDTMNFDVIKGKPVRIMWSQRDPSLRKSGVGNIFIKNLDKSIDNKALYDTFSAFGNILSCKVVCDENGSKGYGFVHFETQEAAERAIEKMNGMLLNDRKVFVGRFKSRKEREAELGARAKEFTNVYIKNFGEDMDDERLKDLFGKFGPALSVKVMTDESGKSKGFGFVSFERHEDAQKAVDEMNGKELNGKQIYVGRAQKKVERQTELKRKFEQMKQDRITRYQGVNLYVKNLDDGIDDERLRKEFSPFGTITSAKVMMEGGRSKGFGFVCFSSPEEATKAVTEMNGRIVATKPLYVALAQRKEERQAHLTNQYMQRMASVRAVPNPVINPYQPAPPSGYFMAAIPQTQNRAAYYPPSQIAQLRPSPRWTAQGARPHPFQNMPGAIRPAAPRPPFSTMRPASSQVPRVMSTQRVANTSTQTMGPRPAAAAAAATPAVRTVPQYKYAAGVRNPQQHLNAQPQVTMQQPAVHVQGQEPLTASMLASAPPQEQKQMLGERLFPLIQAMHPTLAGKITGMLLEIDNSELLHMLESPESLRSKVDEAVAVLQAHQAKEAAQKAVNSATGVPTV
eIF4H FP inh retest = recorded beside eIF4H FP inh, whose call it bears; inhibition, %; compound at 20 µM; confirmation average;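 mean of two retest wells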
PABP FP inh retest = further read-out of PABP FP inh, marked with its call; inhibition, %; compound at 20 µM; confirmation repeats;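 mean of two retest wells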
MT1-MMP act inh RFP = also measured in MT1-MMP act inh; calls as there; RFP signal change, %; measured here: RFP expression control read;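 0 = vehicle wells; hits needed this value within 50% of zero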
* hit, by the source's call; i = inactive; u = inconclusive; x = no result given.

SMILES | Env fusion inh | MT1-MMP act inh | MT1-MMP act inh RFP | eIF4H FP inh | Rce1 inhib | UUG fidelity | CSC inhib | PABP FP inh | others
COc1ccc(OC)c(NC(=O)CNC(=O)Cn2c(C)cc3ccccc3c2=O)c1 | -74.6 | 1.3 | 1.7 | 9.3 | i | -10.1 | -15.8 | 11.4
Cc1ccc([C@@H]2C[C@H]3[C@@H](CN2S(=O)(=O)c2ccc(Cl)cc2)C(=O)C[C@@H](c2ccccc2F)N3S(=O)(=O)c2ccc(C)cc2)cc1 | -17.2 | -0.7 | -2.3 | x | x | -14.9 | x | x
O=C1C=C(N2CCOCC2)CCC1 | 16.2 | 1.1 | 1.8 | x | i | -8.2 | 2.6 | x
O=C(N/N=C/c1cccnc1)NC12CC3CC(CC(C3)C1)C2 | -11.5 | -1.9 | -5.1 | 0.7 | i | 14.2 | -8.6 | 4.2
Cc1ccc(NC(=O)N2CCC(C(N)=O)CC2)cc1 | x | 4.3 | 6.6 | 4.3 | i | -20.5 | -11.0 | 24.6
O=C(Nc1ccccc1Oc1ccccc1)C1CCCC1 | 8.8 | -22.8 | -4.7 | -6.6 | i | -18.5 | -11.8 | -5.4
CC1CCN(CCCNC(=O)c2nn(C)c3c2CS(=O)(=O)c2ccccc2-3)CC1 | -10.2 | 1.4 | -2.7 | -7.5 | i | x | -2.3 | 6.3
Cc1cc(N2CCCCC2)nc(NCc2ccccc2)n1 | -192.4 | -14.6 | -12.9 | 3.5 | i | -15.8 | x | -3.6
CN(CC(=O)Nc1ccc(F)cc1)C(=O)CSc1ncccn1 | -34.8 | -2.9 | -5.8 | x | i | -1.8 | -7.8 | x
NC(=O)C(C1=CCCCC1)c1ccccc1 (configuration not stated) | u | -1.9 | 4.4 | x | x | -15.1 | x | x
CCCCc1ccc(-c2ccc(C)cc2O)nc1 | -442.6 | -2.1 | 0.7 | 1.6 | i | -19.0 | -5.3 | -3.0
COc1ccc(/C=C/c2noc(-c3ccccc3OC(C)=O)n2)cc1 | -25.5 | -0.5 | 0.9 | 4.8 | i | -23.9 | 1.8 | 6.6
CCOCCCNC(=O)CS(=O)(=O)Cc1nc(-c2cccc(OC)c2)oc1C | 15.6 | -7.1 | 4.0 | -1.5 | i | 16.3 | -3.8 | -3.0
N#Cc1ccsc1NC(=O)CN1CCN(S(=O)(=O)c2cc(Cl)ccc2Cl)CC1 | x | 0.1 | 1.9 | 12.8 | i | x | x | 10.5
Cc1ccc(C2=NS(=O)(=O)N(C)C(C(=O)NC(C)c3ccccc3)=C2)cc1 (configuration not stated) | x | -6.0 | -3.5 | -5.7 | i | 12.8 | -3.0 | -6.1
Cc1ccc(S(=O)(=O)NC(=O)Nc2c(C)n(C)n(-c3ccccc3)c2=O)cc1 | x | -3.3 | 1.0 | 5.6 | i | -8.2 | -6.4 | 5.2
COc1ccc(CN2CCN(C3CCSCC3)CC2CCO)c(C)c1C (configuration not stated) | 5.6 | 2.2 | 4.1 | 2.7 | i | -21.7 | x | 2.7
COc1ccc2c(c1)[nH]c1c(=O)n(CCN3CCCC3)cnc12 | x | 3.0 | 0.7 | -6.5 | i | 3.0 | -4.1 | -5.0
O=C(Nc1ccnn1C1CCN(Cc2cc(Cl)ccc2O)CC1)C1CC1 | -0.8 | 2.4 | -0.6 | -10.0 | i | -27.5 | -10.6 | -9.5
O=[N+]([O-])c1ccc(S(=O)(=O)N/N=C/c2cccs2)cc1 | -18.9 | 2.4 | 4.9 | -4.5 | i | x | -1.2 | 6.4
O=C(CN1CCOCC1)N1CCN(c2ccc([N+](=O)[O-])cc2)CC1 | 7.9 | 2.9 | -0.6 | 30.9 | i | x | 3.3 | 19.5
CCOc1ccccc1Nc1nnc(SCC(=O)NC2CC2)s1 | x | -1.5 | 3.2 | x | x | -10.4 | 14.6 | x
O=C(Cn1c(-c2ccccc2)noc1=O)Nc1ccc(S(=O)(=O)N2CCOCC2)cc1 | -116.5 | -1.3 | -0.1 | -11.3 | i | x | -16.9 | -2.4
Cc1ccc(-c2nc(CCNC(=O)c3ccco3)cs2)cc1 | -5.6 | -0.1 | -1.4 | x | i | -17.6 | -0.4 | x
CCCNC(=O)C(=O)NCC1CCCN1CC (configuration not stated) | -11.1 | 3.2 | 4.0 | -9.2 | i | -18.9 | -1.1 | -9.9
COc1ccc(/C=C/c2ccc(=O)n(Cc3ccccc3)n2)cc1 | -140.6 | -1.7 | -9.6 | 16.6 | i | x | 17.3 | 5.9
Cc1ccc(S(=O)(=O)NCC(=O)OCc2nnc(-c3ccccc3)o2)cc1 | x | 0.5 | 3.4 | -7.4 | i | -10.3 | 6.4 | -2.2
CCOC(=O)C1CCCN(c2ncnc3c2cnn3-c2ccc(OC)cc2)C1 (configuration not stated) | -1.0 | 3.7 | 1.0 | -13.1 | i | -20.1 | 9.9 | -4.0
CN1CCC(OC(=O)c2ccccc2)CC1 | 11.1 | 5.4 | 4.0 | 3.3 | i | -11.0 | 15.8 | -0.2
N#Cc1nc(COc2ccccc2)oc1NCCN1CCOCC1 | x | -2.6 | -4.5 | -8.1 | i | -20.1 | -17.7 | 1.5

Two records picked at random from those above, as already listed:
SMILES | Env fusion inh | MT1-MMP act inh | MT1-MMP act inh RFP | eIF4H FP inh | Rce1 inhib | UUG fidelity | CSC inhib | PABP FP inh | others
Cc1ccc(S(=O)(=O)NCC(=O)OCc2nnc(-c3ccccc3)o2)cc1 | x | 0.5 | 3.4 | -7.4 | i | -10.3 | 6.4 | -2.2
COc1ccc(CN2CCN(C3CCSCC3)CC2CCO)c(C)c1C (configuration not stated) | 5.6 | 2.2 | 4.1 | 2.7 | i | -21.7 | x | 2.7

The list continues:
SMILES | Env fusion inh | MT1-MMP act inh | MT1-MMP act inh RFP | eIF4H FP inh | Rce1 inhib | UUG fidelity | CSC inhib | PABP FP inh | others
Cc1nn2c3ccccc3n(CCN3CCCCC3)c2nc1=O | x | 6.9 | 11.3 | -5.5 | i | -9.1 | -7.5 | -22.6
CC(C)[C@H](NC(=O)C1CCN(S(=O)(=O)c2ccc(F)cc2)CC1)C(=O)NCc1ccncc1 | -3.3 | 0.9 | 1.0 | -2.9 | i | -3.5 | -6.5 | 5.7
O=c1cc(-c2ccccc2)nc(/C=C/c2ccccc2)[nH]1 | -12.2 | 2.7 | 1.3 | 5.8 | i | -33.6 | 20.2 | 0.4
CCc1nc(NCc2ccccn2)c2oc3ccccc3c2n1 | x | -1.7 | -20.7 | -10.6 | i | -10.7 | -20.6 | 0.1
CCOCCCNC(=O)NC(=O)CN1CCN(S(=O)(=O)c2ccc3c(c2)OCCO3)CC1 | -0.5 | -1.7 | 1.6 | -3.0 | i | x | -14.8 | 15.2
C=C1C(=O)O[C@H]2C1CC[C@@](C)(O)C13C=CC(C)(C21)C1(C3)C(=O)O[C@@H]2C3C(C)=CCC3[C@](C)(O)C[C@H](OC(C)=O)C21 (some centres not stated) | -13.1 | 0.1 | 1.1 | 1.5 | i | 3.4 | 19.8 | 12.9
C=CCc1ccccc1OCCNCCCOC | x | 4.2 | 2.3 | 2.6 | i | x | 5.3 | 7.3
O=S(=O)(c1ccc2nc(-c3ccccc3)[nH]c2c1)N1CCN(c2ccc(Cl)cc2)CC1 | 39.6 | 3.4 | -6.2 | -9.4 | i | -2.4 | 22.8 | 110.7 | eIF4H FP inh retest=-10.3;PABP FP inh retest=1.0
Cc1ccc(-c2nc3ncccn3c2NC2CCCCC2)o1 | -26.2 | -5.7 | -5.5 | 53.5* | i | -17.2 | -11.8 | 51.1*
CC1CCN(C(=O)CSc2nc3cccnc3n2C)CC1 | x | 6.2 | -3.6 | -6.1 | i | -14.1 | 22.4 | -3.0
O=C(NCc1ccc2c(c1)OCO2)C1CCCN1C(=O)Nc1cccc(Cl)c1 (configuration not stated) | -106.9 | 0.8 | -2.0 | -5.9 | i | -18.5 | -0.5 | -6.6
CCOCCCNC(=O)Cn1nc(Cc2ccncc2)c2ccccc2c1=O | 26.4 | 0.6 | 3.6 | -18.3 | i | -16.9 | -25.4 | -3.2
COc1ccc(OC)c(NC(=O)CCN2CCCCCC2)c1 | x | -3.5 | -4.8 | 6.8 | i | -7.2 | x | -0.5
CCNC(=O)N1c2ccccc2Sc2ccccc21 | -12.7 | 1.6 | -4.4 | 1.5 | i | x | -4.2 | -7.8
CN1\C(=C/C=C/C=C/C=[N+](C)C)C(C)(C)c2ccccc21 | 32.9 | -9.4 | 61.8 | u | i | x | x | -3.6
COc1ccc2nc(Nc3nc(C)c(CCC(C)C)c(=O)[nH]3)nc(C)c2c1 | 37.5 | 5.1 | -3.4 | -4.8 | i | -7.4 | -5.0 | -5.2
CC(C)CN(C(=O)CN1CCC(C)CC1)c1c(N)n(CC(C)C)c(=O)[nH]c1=O | 0.4 | 0.1 | 3.0 | 7.0 | i | x | -3.8 | -6.8
COc1cccc(CNC(=O)c2ccc(CS(=O)(=O)Cc3ccccc3C)o2)c1 | -1.3 | 1.2 | -0.3 | 2.9 | i | -7.7 | -9.5 | 5.9
CC(=O)N(Cc1ccccc1)Cc1cn(CCC#N)nc1-c1cccc([N+](=O)[O-])c1 | 23.1 | 6.7 | -2.3 | 2.6 | i | 14.5 | -6.1 | -10.6
Cc1ccc(OCC(=O)c2cc(C)n(Cc3cccs3)c2C)c([N+](=O)[O-])n1 | 14.2 | -10.5 | -23.0 | u | i | -8.3 | x | u
Cc1cc(N2CC(C(=O)NCc3cccs3)CC2=O)ccc1C(C)C (configuration not stated) | -95.2 | 10.2 | -1.0 | -10.8 | i | -3.2 | -13.9 | -6.7
COc1c2ccoc2nc2c(OC)c(OCC(O)C(C)(C)O)ccc12 (configuration not stated) | x | 3.2 | 4.3 | -1.4 | x | -9.1 | -6.5 | -6.5
COc1ccc(C(C(=O)NC2CCCC2)N(C(=O)Cc2cccs2)C2CC2)cc1OC (configuration not stated) | 4.4 | -3.2 | 2.4 | 1.8 | i | 10.7 | x | 12.3
C=CCN1C(=O)C(=Cc2ccc3c(c2)CCC3)SC1=S | -13.6 | 5.2 | 3.1 | x | x | -11.0 | x | x
CCCc1nc2ccc(NC(=O)c3ccco3)cc2c(=O)n1Cc1ccccc1Cl | -8.6 | 11.6 | 11.3 | -12.2 | i | -5.5 | -16.3 | 5.2
CCCCNC(=O)c1ccccc1Cl | -63.7 | -3.5 | 0.8 | -13.8 | i | x | -5.6 | 12.5
COc1cccc(N(C(=O)c2snc(C(N)=O)c2N)C(C(=O)NCC2CCCO2)c2c[nH]c3ccccc23)c1 (configuration not stated) | -0.8 | -2.3 | 0.3 | 11.2 | i | -8.1 | 5.3 | -7.3
CCOC(=O)CNC(=O)c1cnc(Nc2ccccc2OC)c2ccccc12 | 14.2 | -1.7 | 1.2 | 3.4 | i | -13.8 | -9.1 | 0.3
CC(=O)c1sc2nc(C)cc(C)c2c1N | -103.5 | 2.5 | -0.9 | -15.2 | i | -21.2 | -3.4 | -8.9
Cn1c(Cn2cnc([N+](=O)[O-])n2)nnc1SCC(=O)Nc1ccc(Br)cc1 | 8.4 | 3.9 | -1.7 | -11.6 | i | -11.6 | 1.0 | 48.9
CCNc1nc(Oc2ccc(F)cc2)cc(C(F)(F)F)n1 | -45.5 | -1.9 | -1.6 | -14.9 | i | -17.1 | 3.6 | 1.6
O=C(CN(Cc1cccs1)C(=O)c1csnn1)NC1CCCC1 | 19.4 | 5.9 | 39.4 | -1.3 | i | x | -1.7 | -10.9
COC(=O)c1c(Cl)c2n3ccccc3c(C)c(-c3ccccc3)c-2c1C(=O)OC | x | -25.4 | 3.2 | 31.2 | i | -20.2 | 3.8 | -0.3
